High-throughput results deposited in PubChem by National Center for Advancing Translational Sciences (NCATS).
hNpr1 antagonist – Natriuretic polypeptide receptor (hNpr1) antagonism - Primary qHTS; HEK293 hNpr1 GloSensor cGMP, ANP-stimulated luminescence; Potency, µM (series often up to 46.3 µM), for the others: at the top dose activity change, negative = inhibition, hits mostly inhibitors; 1.6% of 76,000 active; AID 1347048, 2019; active = well fitted inhibition curve with a large enough effect; inconclusive = small, poorly fitted or top-dose-only effect; inactive = no such curve, though single readings can be large or run the other way;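 note: nearly all actives have a fitted effect of over 60% in size; nearly all hits also lower the signal before the agonist is added; a reference antagonist and vehicle were the controls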
Target sequence (P16066 whole entry, looked up): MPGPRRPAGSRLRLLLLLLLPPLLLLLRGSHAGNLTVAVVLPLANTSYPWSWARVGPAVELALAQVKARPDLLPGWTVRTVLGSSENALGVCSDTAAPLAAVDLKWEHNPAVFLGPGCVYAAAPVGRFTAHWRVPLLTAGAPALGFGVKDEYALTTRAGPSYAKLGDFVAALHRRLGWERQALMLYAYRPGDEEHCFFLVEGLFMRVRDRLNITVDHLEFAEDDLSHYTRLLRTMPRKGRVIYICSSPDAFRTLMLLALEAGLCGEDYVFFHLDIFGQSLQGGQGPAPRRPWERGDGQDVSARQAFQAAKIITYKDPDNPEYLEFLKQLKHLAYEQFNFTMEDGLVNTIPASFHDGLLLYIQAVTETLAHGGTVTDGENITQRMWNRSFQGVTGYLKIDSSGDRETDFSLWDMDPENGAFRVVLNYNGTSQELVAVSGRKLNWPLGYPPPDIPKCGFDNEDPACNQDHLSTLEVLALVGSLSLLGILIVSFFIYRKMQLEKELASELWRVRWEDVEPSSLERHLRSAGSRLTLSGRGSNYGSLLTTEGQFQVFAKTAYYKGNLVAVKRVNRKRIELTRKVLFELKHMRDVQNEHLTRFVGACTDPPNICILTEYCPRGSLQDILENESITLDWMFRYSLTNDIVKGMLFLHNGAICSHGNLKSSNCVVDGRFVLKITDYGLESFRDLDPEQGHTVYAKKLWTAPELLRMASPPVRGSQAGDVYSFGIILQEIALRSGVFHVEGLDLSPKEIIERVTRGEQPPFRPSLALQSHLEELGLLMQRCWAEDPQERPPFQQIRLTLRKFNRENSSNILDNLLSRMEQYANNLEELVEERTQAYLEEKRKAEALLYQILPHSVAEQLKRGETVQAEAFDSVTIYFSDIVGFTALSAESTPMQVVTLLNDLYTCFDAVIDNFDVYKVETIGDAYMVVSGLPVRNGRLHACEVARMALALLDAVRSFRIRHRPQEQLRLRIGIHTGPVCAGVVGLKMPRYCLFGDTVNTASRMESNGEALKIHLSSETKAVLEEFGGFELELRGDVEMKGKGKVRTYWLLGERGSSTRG
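HEK293 cells stably expressing human Npr1 and cGMP GloSensor pGS-40F, loaded 2 h with 2% GloSensor reagent, given compound 30 min at room temperature. Luminescence read before and 20 min after 0.1 nM hNppA.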
Numbers without * were called inactive; ? = inconclusive; [ ] = dose if it differs, or a comment. % is set by controls: 0 for no effect and ±100 for the full control effect; potency is the fitted concentration of half-maximal effect. Some of the compounds tested, so the mix of outcomes need not match the whole.

hNpr1 antagonist	canonical_smiles
-22%	COc1ccc(C(=O)NCCn2ccn3nc(-c4cc(C)ccc4C)cc3c2=O)c(OC)c1
-1%	Cc1c(-c2cc(C(=O)N3CCC(=O)N(CC4CC4)C(C(C)C)C3)no2)cnn1C (centres undefined)
-21%	O=C(CCCN1C(=O)COc2ccc(C(=O)COc3cccc(Cl)c3)cc21)NCc1ccccc1
-7%	CC1(c2noc(-c3ccccc3)n2)CCN(C(=O)CCC(=O)N2CC(=O)Nc3ccccc32)CC1
4%	CCCNC(=O)N1CCC2(CC1)C(=O)N(C)c1ccccc12
-23%	O=C(Nc1cnc(-c2ccc(Cl)cc2)nc1)c1ccccc1F
0%	COc1ccc(C(=O)N2CCCC2c2nc(CCOCC3CC3)no2)cc1 (centres undefined)
-2%[70.6 µM]	O=C(Nc1ccccc1)c1cnc2n1CCN(Cc1ccc3[nH]ccc3c1)CC2
-16%	O=C(c1cc(Cl)ccc1F)N1CCC(n2cc(-c3nc(C4CC4)no3)nn2)C1 (centres undefined)
12%	COc1cccc(N2C(=O)NC(=NC3CCCCC3)C23CCN(C(=O)OCc2ccccc2)C3)c1 (centres undefined)
5%[70.6 µM]	O=C(NCc1cccs1)C1CCN(c2nc3ncccc3o2)CC1
1%	Cc1ccc(N2Cc3c(ncnc3N3CCN(c4ncccn4)CC3)N(C)CC2=O)cc1
-1%[70.6 µM]	Cc1ccc(CN2C[C@H]3CN(C(=O)C4CCOCC4)CCN3C2=O)cc1
-6%	O=C(COc1ccccc1)N[C@H]1CO[C@H]2[C@@H]1OC[C@@H]2n1nnnc1Oc1ccc2c(c1)OCO2
-8%	CCOC(=O)C1(Cc2ccccc2F)CCCN(C(=O)c2cccc(C(=O)OC)c2)C1 (centres undefined)

Laid out differently: results already given.
structure	hNpr1 antagonist
O=C(Nc1cnc(-c2ccc(Cl)cc2)nc1)c1ccccc1F	-23%
COc1ccc(C(=O)N2CCCC2c2nc(CCOCC3CC3)no2)cc1 (centres undefined)	0%
O=C(Nc1ccccc1)c1cnc2n1CCN(Cc1ccc3[nH]ccc3c1)CC2	-2%[70.6 µM]
O=C(c1cc(Cl)ccc1F)N1CCC(n2cc(-c3nc(C4CC4)no3)nn2)C1 (centres undefined)	-16%
COc1cccc(N2C(=O)NC(=NC3CCCCC3)C23CCN(C(=O)OCc2ccccc2)C3)c1 (centres undefined)	12%
O=C(NCc1cccs1)C1CCN(c2nc3ncccc3o2)CC1	5%[70.6 µM]
Cc1ccc(N2Cc3c(ncnc3N3CCN(c4ncccn4)CC3)N(C)CC2=O)cc1	1%

Two compounds picked at random from those above:
hNpr1 antagonist	canonical_smiles
5%[70.6 µM]	O=C(NCc1cccs1)C1CCN(c2nc3ncccc3o2)CC1
-22%	COc1ccc(C(=O)NCCn2ccn3nc(-c4cc(C)ccc4C)cc3c2=O)c(OC)c1

The results go on.
hNpr1 antagonist	canonical_smiles
0%	CCN(C(=O)Cn1c(C)cc2nc3n(c(=O)c21)CCCCC3)c1cccc(C)c1
-3%	O=C(NCC1CCCO1)N1CCCn2cc(-c3ccccc3)nc21 (centres undefined)
5%	COc1cccc(C2=NOC(C(=O)NC(C)(C)C)C2)c1 (centres undefined)
5%	Cn1ccnc1C(=O)N1CCCCCCNC(=O)[C@@H]2CCCC[C@@H]21
2%	CCc1ccc(S(=O)(=O)N[C@@H]2COCC[C@H]2Oc2ccccn2)s1
-4%	COc1ccc(-c2noc([C@@H]3CCCN3C(=O)Cc3ccccc3Cl)n2)cc1OC
-13%	COc1ccccc1CCC(=O)N1CCC2(CC1)N=C(c1ccc(C)cc1)NO2
-2%[70.6 µM]	O=c1ncn(CC2CC2)c2ccc(N3CCC(c4ccccc4)CC3)nc12
0%[70.6 µM]	COc1ccccc1-c1cc2c(ccn2C)c(C(=O)NCCN2CCNC2=O)n1
3%	O=C(c1ccc(Cl)cc1)N1CCC([C@@H]2CNC[C@H]2CO)CC1
-1%	CC(C)C(=O)N1CCC(Oc2cccc(F)c2)C1 (centres undefined)
0%	CN1CC2(CCN(Cc3cccn3C)CC2)CC1C(=O)N1CCOCC1 (centres undefined)
4%	OCCC1CN(Cc2cn[nH]c2-c2ccc(F)cc2)CCN1Cc1cccs1 (centres undefined)
-13%	CC(C)c1ccc(-c2nc(-c3cccnn3)no2)c(=O)[nH]1
3%	COc1cccc(S(=O)(=O)N2CCC(c3noc(-c4ccccn4)n3)C2)c1 (centres undefined)

hNpr1 antagonist	canonical_smiles
-12%	COCC(=O)N1CCCN(CCc2ccccc2)c2ccccc21
-1%[70.6 µM]	COc1ccccc1-c1n[nH]c2c1CC(=O)N(c1ccccc1)C2
2%	O=C1NCCCCCCN(C(=O)c2ccco2)[C@H]2CCC[C@@H]12
?	Clc1cccc(-c2cnc([C@@H]3COCCN3Cc3c[nH]c4ccccc34)[nH]2)c1
1%	COc1ccc(C2Cn3nnc(-c4noc(-c5ccc(OC)c(F)c5)n4)c3CO2)cc1 (centres undefined)
-7%	CCc1cccc(NC(=O)N2CCCC2c2nncn2C2CCCC2)c1 (centres undefined)
?	Cn1ccnc1-c1ccc(N2CCCC(CO)(CCOc3ccccc3)C2)nn1 (centres undefined)
0%	O=C([C@@H]1C[C@H](F)CN1S(=O)(=O)c1ccccc1)N1CCOCC1
2%	Cc1cccc(-c2cn[nH]c2C2CCN(C(=O)c3cc(=O)[nH]c(=O)[nH]3)CC2)c1
1%	CCN(CC)Cc1cnc2c(C(=O)N(C)Cc3ccccc3C)cnn2c1
-7%	O=C(NCCCN1CCc2ccccc2C1)C1Cn2cccc2C(=O)N1Cc1ccccc1 (centres undefined)
6%	O=C1Nc2ccc(-c3ccc4c(c3)OCO4)cc2C(=O)N2CCN(C(=O)c3cccs3)C[C@@H]12
?	O=[S+]([O-])(Nc1ccccc1)c1ccc2c(c1)OCCN(Cc1nccs1)C2
-1%	CC(C)(C)n1nnnc1C1CC2(CCOCC2)C(=O)N1Cc1ccc(C(F)(F)F)cc1 (centres undefined)
?	O=C(c1cccc(Br)c1)N1CCN(c2cc(-c3ccc(Cl)cc3)[nH]n2)CC1

hNpr1 antagonist	canonical_smiles
3%	Cc1cc(C)cc(CSCC(=O)N[C@H]2CCOC[C@H]2C2CCOCC2)c1
-15%	O=C(Cc1ccccc1)N1CCC2(CNc3ccccc3[S+](=O)([O-])N2)C1 (centres undefined)
4%	COc1ccc(-c2ccc3nc(-c4cc(F)cc(F)c4)oc3c2)c(OC)c1OC
-3%[70.6 µM]	O=C(NCc1cccs1)C1CCCN1c1nc2ncccc2o1 (centres undefined)
0%	O=C(c1ccoc1)N1CCCN(C2CCC3(CCNCC3)CC2)CC1
-1%	CCOc1ccccc1CN1CCC[C@H]1C(=O)N1CCCCCCNC(=O)CC1
-3%	NC(=O)C1(C(=O)NCc2nc(-c3cccc(F)c3)c(-c3ccccn3)[nH]2)CC1
-4%	O=C(Nc1ccc(F)cc1)C1CCCN1c1nc2ncccc2o1 (centres undefined)
1%	O=C1CC(c2ccccc2)N(Cc2ccncc2)CCCN(C(=O)COc2ccc(F)cc2)CCN1 (centres undefined)
-18%	CC(C)(C)NC(=O)N1CCCC1c1noc(COc2ccc(F)cc2)n1 (centres undefined)
?	Cc1ccccc1S(=O)(=O)N1CCCC(Cc2noc(-c3ccncc3)n2)C1 (centres undefined)
3%[70.6 µM]	COc1cccc(-c2nc(-c3c(C)noc3C)cc3cc(C)oc23)c1
1%	Cn1nc2n(c1=O)CCN(C(=O)CCCc1c[nH]c3ccccc13)CC2
-1%	CCC(=O)N1CCC(Cc2noc(C3CCOCC3)n2)C1 (centres undefined)
-2%	COc1cccc(CNC(=O)CN2C(=O)NC(c3ccc(C)cc3)C3=C2COC3=O)c1OC (centres undefined)

hNpr1 antagonist	canonical_smiles
-7%	O=C(c1ncn[nH]1)N1CCN(c2cc(C3CC(O)C3)ncn2)CC1 (centres undefined)
-14%[70.6 µM]	Cc1ccc2nc(CO[C@H]3CN(C(=O)c4ccccc4)C[C@H]3F)[nH]c2c1
-2%[70.6 µM]	O=C(c1cccc(F)c1)N1CCN2C(=O)N(C3CCCCC3)C(=O)[C@@H]2C1
-21%	COc1ccc(-c2cc(N3CCC(NC(=O)c4ccc(F)cc4Cl)CC3)n[nH]2)cc1
20%	Cc1ccc(C(=O)N2CCC3(CC2)COc2ccccc2C(=O)N3)cc1
-15%	OC1(Cn2ccnc2)CCN(Cc2ccccc2Cn2cccn2)CC1
-12%[70.6 µM]	Cc1cc(C)c(CNC(=O)c2cc(-c3ccccc3O)cc3c2OCCN3C)c(=O)[nH]1
-1%	CC(C)c1cccc(NC(=O)CN2C(=O)NC3(CCS(=O)(=O)CC3)C2=O)c1
1%	COc1cccc(-c2cc(C(=O)N3CCC(Cn4cccn4)CC3)[nH]n2)c1
-1%	CNC(=O)CC1=C2CCCCC2N(C)C1=O (centres undefined)
-9%	Cc1cc(C)n(Cc2c(C(=O)NCC3Cn4cccc4C(=O)N3C)noc2C)n1 (centres undefined)
7%	COc1ccccc1CCC(=O)N1C[C@@H](C)[C@](O)(C2CC2)C1
0%[70.6 µM]	COCCN1Cc2ccc(NCC(C)C)nc2C(C)(C(=O)Nc2ccncc2)C1 (centres undefined)
?	Cc1nn(-c2ccc(F)cc2)c(C)c1[C@@H]1C=C[C@@H](NC(=O)NC(C)C)C1
1%	COc1cccc(CN2CCc3c(cc(C(=O)N(C)C)n3C)C2)c1

hNpr1 antagonist	canonical_smiles
1%	COCCCN1CC2(CCN(C(=O)c3ccccc3N(C)C)CC2)CC1=O
6%[70.6 µM]	O[C@@H]1C[C@@H](c2nc(-c3cccnc3)no2)N(Cc2cc3ccccc3o2)C1
-1%	COCCC(=O)N1C[C@@H]2CCCN3CCC[C@@H]([C@H]23)[C@H]1CCCC(=O)Nc1ccccc1
6%	Cc1ncsc1CCN(C)C(=O)c1cc(=O)[nH]c(=O)[nH]1
-14%	COC(=O)c1nc(NC(=O)Cn2nc3c(cc2=O)CCCCC3)sc1C(C)C
-5%	CC1CCC2(CC1)NC(=O)N(CC(=O)NC1CCCC1)C2=O (centres undefined)
-2%	Cc1ccc(C2(O)CCN(c3nc(C)ccc3C(N)=O)CC2)nc1
10%	CCN(CC)C(=O)C1CCCCC(=O)N1C (centres undefined)
-13%[70.6 µM]	Cc1ccccc1-n1nc(C)c([C@H]2C=C[C@@H](OC(=O)NC(C)C)C2)c1C
-2%	COc1cccc(C(=O)Nc2ccc3c(c2)CN(Cc2cccc(OC)c2OC)C(=O)CO3)c1
-3%	COc1cccc(CNC(=O)[C@@H]2C[C@@H](O)CN2C2CCN(C(=O)c3ccccc3OC)CC2)c1
6%	COCCNC(=O)c1ccc2c(c1)N(C)C(CC(=O)NCc1ccncc1)CO2 (centres undefined)
-3%	O=C(Nc1ccccc1)C1CC(=O)N(c2n[nH]c3cc(Br)ccc23)C1 (centres undefined)
3%	COc1cc(F)ccc1CNCc1cccnc1N1CCOCC1
4%	O=C(CCCc1ccccc1)N1CCn2c(nnc2[C@@H]2C[C@@H](O)CN2Cc2ccccc2)C1

hNpr1 antagonist	canonical_smiles
1%	COCCN1CC(CO)C2(CCN(Cc3cc(F)c(F)cc3F)CC2)C1 (centres undefined)
4%	COCCNC(=O)[C@@H]1C[C@H](Oc2ccccc2)CN1C(=O)c1cccc(C)c1
1%	Cc1nc(CN2C(=O)OC3(CCN(CCCc4ccccc4)CC3)C2(C)c2ccccc2)cs1 (centres undefined)
-8%	COc1cc(CCC(=O)N2CCc3nn(Cc4ccccc4)c(=O)n3CC2)on1
0%[70.6 µM]	CC(=O)N[C@H]1C[C@@H](c2nc(-c3ccccc3)no2)N(C)C1
2%	CCn1nc(C)c(CNC(=O)CCC[C@@H]2[C@H]3CCCN4CCC[C@@H](CN2C)[C@@H]34)c1C
-1%	COc1ccc(CN2CC[C@@H]3[C@H]2C(=O)NC[C@H](CCC(=O)N2CCN(c4ccccn4)CC2)N3C)cc1
-21%	CC(C)Cn1cc2c3c(cccc31)CNCC2
4%	CN1CC(=O)N(c2cccnc2)Cc2c1ncnc2N1CCN(c2ccccn2)CC1
-2%	COc1ccc(C2Cn3nnc(C(=O)N4CCC(C(=O)NCC5CCCCC5)CC4)c3CO2)cc1 (centres undefined)
-2%	COc1ccc(CN2C=C(C(=O)O)C(C)=NS2(=O)=O)cc1F
-1%	Cc1nc(-c2cn(C3CCCN(C(=O)c4ccc(C#N)cc4)C3)nn2)no1 (centres undefined)
6%	COCCc1noc([C@@H]2CC(F)(F)CN2C(=O)c2cc(C)on2)n1
-2%	CCCNC(=O)C(NC(=O)CC(C)C)C1CCN(C(=O)c2ccc3c(c2)OCO3)CC1 (centres undefined)
10%	CN1CCCC2(CCN(C(=O)Cc3c[nH]c(=O)n(C)c3=O)C2)C1=O (centres undefined)
-25%	N#Cc1ccc(CN2CCC3(CC2)CNc2ccccc2[S+](=O)([O-])N3)cc1
0%	Cc1cn2nc(C(=O)NCc3cccc(Cl)c3)cc2c(=O)[nH]1
-13%	COc1ccc2c(c1)c(CN1CCCCCCN(C)C(=O)[C@@H]3CCC[C@@H]31)cn2C
